N370S GC = N370S glucocerebrosidase modulation, Gaucher chaperone candidate. N370S GC spleen homogenate, 4MU-glucoside fluorescence. Potency, µM (highest dose often 59.4 µM), inactives show at the top dose activity change, negative = inhibition, actives largely listed as inhibitors. 330,000 compounds, 0.092% hits. AID 2101; active = well fitted inhibition curve with a large enough effect; inconclusive = small, poorly fitted or top-dose-only effect, or effect the other way, or another doubt; inactive = no such curve, though single readings can be large or run the other way;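 also: 0% = full enzyme activity and -100% = no enzyme basal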
Numbers without * were called inactive; ? = inconclusive; & = joins results of further samples; [ ] = remark or other dose. Potency is read from the fitted curve at half-maximal effect. A portion of the library; most or all hits stand in other tables.

Molecule | N370S GC
Cc1nnc(SCc2ccc(C(=O)O)cc2)s1 | 17%
NS(=O)(=O)c1ccc(CCNC(=O)[C@@H]2CCCN2S(=O)(=O)c2ccccc2F)cc1 | -16%
COc1ccc(/C=C(\NC(=O)c2ccccc2)C(=O)NCCN2CCOCC2)cc1 | 1%
CC(C)N(C(=O)C[n+]1ccsc1N)c1ccccc1 | 4%
O=C(O)CCC(=O)Nc1cccc(C(=O)Nc2cccc(Cl)c2)c1 | 0%
COc1ccc(NC(=O)c2ccc(-n3cncn3)c([N+](=O)[O-])c2)cc1 | 27%
O=C(O)CSc1nnc(-c2cccc(S(=O)(=O)N3CCOCC3)c2)n1-c1cccc(Cl)c1 | -13%
O=C(CN1CCCC1)N/N=C/c1ccc(-c2cccc(Cl)c2)o1 | -16%
COc1ccccc1NC(=O)C1CCCN(c2ncnc3c2nc2n3CCCCC2)C1 (stereo not given) | -7%
O=C(N/C(=C/c1ccccc1)C(=O)N1CCOCC1)c1ccc([N+](=O)[O-])cc1 | 9%
CCOc1nc(NC(C)C)nc(NC(C)C)n1 | 6%
O=C(Nc1cc(Cl)ccc1N1CCCCC1)c1cccs1 | 24%
CN(C)S(=O)(=O)c1cccc(NC(=O)c2cc3c(=O)n4ccccc4nc3s2)c1 | 6%
N#CCSc1ccccc1NC(=O)COC(=O)CCNC(=O)c1ccc([N+](=O)[O-])cc1 | -1%
C[n+]1ccccc1/C=C1\Sc2ccccc2N1CCO | -7%
Cc1cc(C)n2nc(C(=O)Nc3ccc(S(=O)(=O)N(C)C)cc3)nc2n1 | -9%
COc1ccc(C(=O)NCCc2ccccc2)cc1[N+](=O)[O-] | -5%
CCOC(=O)CSc1nc(NCc2ccco2)c2ccccc2n1 | 4%
CCc1ccc(N(CC)C(=O)c2ccc3c(Cl)c4c(nc3c2)CCC4)cc1 | 4%
O=C(c1ccc(N2CCOCC2)nc1)N1CCCCC1 | -1%
CC1CCCC(C)N1C(=O)CN1C(=O)C(C)(C)Oc2ccc(C(=O)NC3CCCC3)cc21 (stereo not given) | 5%
CC(C)(C)NC(=O)NC(=O)COC(=O)Cc1coc2ccc3ccccc3c12 | -11%
O=C(c1ccc2ccccc2n1)N1CCN(c2ccccc2Cl)CC1 | -9%
CC(=O)SCCC(=O)Nc1ccccc1 | -17%
COc1ccccc1CNC(=O)CCCn1nc(C)c2c(C)n(-c3ccccc3)nc2c1=O | 1%
O=C(COC(=O)CCC(=O)c1ccc(F)cc1)Nc1ccc2[nH]c(=O)[nH]c2c1 | 5%
O=C(COC(=O)c1cccs1)Nc1ccccc1[N+](=O)[O-] | -1%
O=C(N/C(=C/c1ccco1)C(=O)N1CCCCCC1)c1ccccc1 | 0%
C=CCc1cc(OC)ccc1OCCON1C(=O)CCC1=O | 1%
COc1ccc(NC(=O)C2C3C=CC4(CN(Cc5cccnc5)C(=O)C24)O3)c(OC)c1 (stereo not given) | 1%
CCCN1CCN(CCCNC(=O)c2ccc(CS(=O)c3ccc(OC)cc3)o2)CC1 (stereo not given) | 6%
O=c1[nH]n(-c2ncnc3c2cnn3-c2ccccc2)c(=O)c2ccccc12 | -1%
Cc1ccc(C)c(N2CCN(C(=O)c3cc4c(C)nc5ccccc5c4o3)CC2)c1 | -7%
COCc1cc(CNC(=O)C2CCC(=O)N(Cc3ccccc3OC)C2)[nH]n1 (stereo not given) | 0%
Cc1ccc(NC(=S)Nc2ccc(OC(F)F)c(Cl)c2)cc1Cl | 1%
COc1ccc(Nc2nc(Nc3ccc(OC)cc3)nc(-n3[nH]c(=O)c(C)c3C)n2)cc1 | -10%
O=C(CSc1nnc(NC(=O)c2ccco2)s1)NC1CCCCC1 | -9%
Cc1c(Cl)c(C(=O)N2CCCCCC2)nn1C | -13%
CC1(c2ccccc2)CC(C)(C)N(C(=O)C2CCCO2)c2ccccc21 (stereo not given) | 20%
Cc1ncoc1C(=O)N1CCCC(C(=O)c2cccc(OC(C)C)c2)C1 (stereo not given) | -6%
Cc1cccc(NC(=O)Cn2cc(C(=O)C3CC3)c3ccccc32)c1 | -9%
Cc1cc(C)nc(SCC(=O)Nc2ncc3c(n2)CCCC3=O)n1 | -1%
O=C(Cn1ncc(N2CCOCC2)c(Cl)c1=O)c1ccc(Cl)cc1 | 0%
Cc1ccccc1C=O | 1%
O=C(Nc1ccc(N2CCOCC2)cc1)C1CC(=O)N(c2ccccc2)C1 (stereo not given) | -9%
Cc1nc(-c2cccs2)sc1C(=O)O | -8%
Cc1cc(O)c2c(-c3ccccc3)cc(=O)oc2c1 | 6%
COc1cccc(OCC(=O)NNC(=O)CCc2ccccc2)c1 | -14%
Cc1ccc(C)c(N2CCN(C(=O)c3ccc(CSc4nc5ccncc5[nH]4)cc3)CC2)c1 | ?
NC1=NC(=O)CC(C(=O)NCCc2ccccc2)S1 (stereo not given) | 4%
O=C(c1cc(C2CC2)on1)N1CCN(C(c2ccccc2)c2ccccc2)CC1 | -1%
Cc1cccc(-n2c(N)cc(=O)[nH]c2=S)c1C | -17%
CCCCn1c(N)c(N(CCC(C)C)C(=O)c2cc(CC)c(C)s2)c(=O)[nH]c1=O | 0%
Cc1cc(-c2ccccc2)nc(N(C)NC(=O)c2cccc(C(F)(F)F)c2)c1S(C)(=O)=O | 7%
CCNc1nc(SCC(=O)OC)nc(N(C)C)n1 | -1%
Clc1ccc2[nH]c3c(NCCCN4CCOCC4)ncnc3c2c1 | ?
CC(=O)Nc1ccc(S(=O)(=O)NCc2ccc(C(=O)N3CCOCC3)cc2)cc1 | 5%
O=C(Nc1nnc(-c2ccncc2)o1)c1ccccc1 | -8%
SC(COCc1ccccc1)CN1CCN(Cc2ccc3c(c2)OCO3)CC1 (stereo not given) | 3%
CC(C)(C)NC(=O)CN(C(=O)Cn1nnc(-c2ccccc2F)n1)c1cccc2c1CCCC2 | ?

(cont.)
Molecule | N370S GC
CCOCCCNC(=O)/C=C1\Sc2ccccc2N(Cc2ccccc2F)C1=O | 2%
CC(C)Oc1ccccc1C1CC(=O)Nc2cc3c(cc21)OCO3 (stereo not given) | 12%
CN(C(=S)NCCN1CCOCC1)C(c1ccccc1)c1ccccc1 | -16%
CC1(C)C(=O)OC(c2cccn2-c2ccc([N+](=O)[O-])cc2)C2(CCCCC2)C1=O (stereo not given) | 4%
Cc1ccc(Cl)cc1NC(=S)N1CCCCCC1 | -1%
CC(C)(C)n1cc(S(=O)(=O)c2ccccc2)[nH]c1=O | 3%
CCOC(=O)c1c(C)[nH]c(C(=O)OCC(=O)Nc2cc(Cl)ccc2OC)c1C | 15%
Cc1ccc(S(=O)(=O)N2CCOCC2)cc1C(=O)O | -7%
Cn1c(=O)n(CC#N)c2ccccc21 | 8%[12.8 µM]
O=C(CSc1nnc(-c2cccs2)n1Cc1ccccc1)N1CCc2ccccc2C1 | 22%
COC(=O)C(CC(C)C)NC(=O)c1ccc([N+](=O)[O-])cc1 (stereo not given) | 0%
Cc1ccc2ncnc(Nc3cccc(C(=O)O)c3)c2c1 | -1%
COc1ccccc1-c1nc(S(=O)(=O)c2ccccc2)c(N2CCOCC2)o1 | 8%
CSc1ccc(Cl)c(C(=O)NCCOc2cc(C)ccc2C(C)C)c1 | 10%
COc1ccc(NC(=O)c2nn(C)c3c2CS(=O)(=O)c2ccccc2-3)cc1 | -2%
Cc1ccc(S(=O)(=O)N2CCN(C(=O)CN3CCc4ccccc4C3)CC2)cc1 | 3%
Cc1ccc(C(=O)NCCCN2CCOCC2)c(C)c1 | -4%
O=C(O)/C=C\c1ccccc1Oc1ccc(F)cc1 | 10%
CCOC(=O)c1cnn2c(C(F)F)cc(C3CC3)nc12 | 26%
COc1cc(O)c(C(CC(=O)N2CCCC2)c2ccc3c(c2)OCO3)c(OC)c1 (stereo not given) | -3%&-3%
O=C(C1CC(=O)N(c2ccccc2)C1)N1CCN(c2ccccc2)CC1 (stereo not given) | -7%
O=C1c2ccccc2S(=O)(=O)c2cc(C(=O)N(c3ccccn3)c3ccccn3)ccc21 | -15%
Cc1cc(-c2n[nH]c(=S)n2Cc2ccccc2)cs1 | 8%
C=CCN(CC=C)S(=O)(=O)c1ccc2nc(NC(=O)C3CCCO3)sc2c1 (stereo not given) | -25%
CCOC(=O)CN1CC23C=CC(O2)C(C(=O)NCc2ccc(F)cc2)C3C1=O (stereo not given) | 21%
O=C(NNC(=O)C1CC1c1ccccc1)c1cccc([N+](=O)[O-])c1 (stereo not given) | 0%
Cc1cc(C)c(C)c(S(=O)(=O)NCCN2CCOCC2)c1C | -8%
Cn1ccc(C(=O)OCC(=O)Nc2cccc3ccccc23)n1 | -5%
CC(C)(C)c1ccc(S(=O)(=O)Nc2ccc(C(=O)N3CCCC3)cc2)cc1 | -11%
O=[N+]([O-])c1cccc(/C([O-])=C(/C(=S)Nc2cccc3ccccc23)[n+]2ccccc2)c1 | 2%

5 entries already listed, arranged by their value in N370S GC, low to high:
Molecule | N370S GC
C=CCN(CC=C)S(=O)(=O)c1ccc2nc(NC(=O)C3CCCO3)sc2c1 (stereo not given) | -25%
CC(C)(C)c1ccc(S(=O)(=O)Nc2ccc(C(=O)N3CCCC3)cc2)cc1 | -11%
O=C(C1CC(=O)N(c2ccccc2)C1)N1CCN(c2ccccc2)CC1 (stereo not given) | -7%
Cc1ccc(C(=O)NCCCN2CCOCC2)c(C)c1 | -4%
O=[N+]([O-])c1cccc(/C([O-])=C(/C(=S)Nc2cccc3ccccc23)[n+]2ccccc2)c1 | 2%

More records
Molecule | N370S GC
O=C(NCCCCc1ccccc1)C1CC(c2ccc(C(F)(F)F)cc2)=NO1 (stereo not given) | 6%
O=C(CSc1nncn1-c1cccnc1)Nc1ccccc1C(F)(F)F | 1%
CCc1ccccc1NC(=O)c1cnn(-c2ccccc2)c1C | -2%
COc1ccc(CCNc2ccc(N3C(=O)CC(C)C3=O)cc2[N+](=O)[O-])cc1OC (stereo not given) | -6%
Cc1cc(NC(=O)c2cccc([N+](=O)[O-])c2)no1 | 3%
CCOC(=O)c1nnc(-c2ccccc2)nc1Sc1ccccc1Cl | 17%
CCOc1ccc(N(Cc2ccccc2F)C2=NC3CS(=O)(=O)CC3S2)cc1 (stereo not given) | -11%
CCCCNS(=O)(=O)c1ccc(OC)c(Cl)c1Cl | 2%
COc1ccc(C(C)=O)cc1Cn1nc(C)c([N+](=O)[O-])c1C | 3%
CNc1nc(-c2ccc3c(c2)CCN3C(=O)c2ccccc2F)cs1 | 17%
CCOc1ccc(CNC(=O)c2ccc(NC(=O)C3=CSCCO3)cc2)cc1 | 2%
COc1cccc(/C=C/C(=O)OCC(=O)Nc2ccc(Cl)c(S(=O)(=O)N(C)C)c2)c1OC | -3%
O=C(c1cccc(S(=O)(=O)N2CCOCC2)c1)N1CCN(c2ccc(F)cc2)CC1 | -19%
O=C(NC1CCN(Cc2ccccc2)CC1)C12CC3CC(CC(C3)C1)C2 | -2%
COc1cccc(CN2CCNC(=O)C2CC(=O)N2CCCCO2)c1OC (stereo not given) | 6%

Quoted at random: 6 compounds from above
Molecule | N370S GC
O=C(CSc1nncn1-c1cccnc1)Nc1ccccc1C(F)(F)F | 1%
O=C(NC1CCN(Cc2ccccc2)CC1)C12CC3CC(CC(C3)C1)C2 | -2%
Cc1cc(NC(=O)c2cccc([N+](=O)[O-])c2)no1 | 3%
O=C(NCCCCc1ccccc1)C1CC(c2ccc(C(F)(F)F)cc2)=NO1 (stereo not given) | 6%
CCc1ccccc1NC(=O)c1cnn(-c2ccccc2)c1C | -2%
COc1ccc(CCNc2ccc(N3C(=O)CC(C)C3=O)cc2[N+](=O)[O-])cc1OC (stereo not given) | -6%

Other results follow:
Molecule | N370S GC
CCOC(=O)C1CCCN(S(=O)(=O)c2ccc3c(c2)N(C(C)=O)CCO3)C1 (stereo not given) | -2%
CN(C(=O)N1CCN(c2ccccn2)CC1)c1ccccc1 | 8%
CC(=O)OCC(=O)[C@@]1(O)CC[C@H]2[C@@H]3CCC4=CC(=O)CC[C@]4(C)[C@H]3C(=O)C[C@@]21C | 0%&-4%
CC1CC1C(=O)Nc1cc(C(F)(F)F)ccc1N1CCOCC1 (stereo not given) | -25%
COc1ccc(CCC(=O)NC2CCCc3ccccc32)cc1OC (stereo not given) | 1%
COc1ccc(CC(=O)Nc2ccc(-c3csc(C)n3)cc2)cc1 | 4%
O=c1nccc(Nc2ccccc2)[nH]1 | -16%
CN(Cc1ccon1)C(=O)CC1C(=O)NCCN1CC(C)(C)C (stereo not given) | -15%
CN1CCN(S(=O)(=O)c2ccc(N(C)Cc3ccc(OC(F)F)cc3)c([N+](=O)[O-])c2)CC1 | -5%
CN(CC(=O)Nc1ccc(F)cc1)C(=O)CCc1nc2ccccc2c(=O)[nH]1 | -12%
N#CCCN(C(=O)COc1ccc(Br)cc1F)c1ccc(F)cc1 | -6%
COc1ccc(NC(=O)CSC2=NC(=O)CC(C)=N2)cc1 | 3%
Cc1cccc(NC(=O)CCSc2nnc(Cc3ccccc3)o2)c1 | -26%
Cc1ccn2c(NC3CCCCC3)c(-c3cccc(-c4cccc(Cl)c4)c3)nc2c1 | 4%
S=C(NCc1ccccc1)NC1CCCCC1 | -9%
COc1ccc(-c2cc(C(F)F)n3ncc(C(=O)N4CCSCC4)c3n2)cc1 | 7%
Cc1ncccc1C(=O)N1CCCC(CNC(=O)c2ccc(-c3ccccc3)cc2)C1 (stereo not given) | 14%
O=C(c1cc(-c2ccc(Cl)cc2)on1)N1CCN(c2ccccc2)CC1 | -1%
N=C1SCC(=O)N1c1ncc(Cc2ccc(F)cc2)s1 | 1%
CCc1c(C)nc2ncnn2c1NC1CCCc2ccccc21 (stereo not given) | 18%
CS(=O)(=O)c1ccccc1C(=O)N1CCN(S(=O)(=O)c2ccc(C3CCCCC3)cc2)CC1 | -1%
Cc1cc(NC(=O)CCOc2ccccc2)no1 | -1%
CC(C)C(c1nnnn1C1CCCC1)N1CCN(C(=O)c2ccco2)CC1 (stereo not given) | -2%
